# Source: PubChem BioAssay (several laboratories)
# INS promoter inh = TRM-6 insulin promoter activity inhibition; TRM-6 cells (human fetal islet line), insulin promoter-eGFP reporter, imaging; reporter expression induced with tamoxifen; 0.9% of 130,000 active; inhibition, % at 2 µM;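 active = inhibition above the mean plus 3 SD, with well images judged a real hit on visual review, cut at about 60% in these data, passing the limit was not always enough; inconclusive = inhibition over the cutoff but images rejected on review; inactive = inhibition not above the cutoff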
# RGS16-Gao = regulators of human RGS16-Galphao interaction; 0.38% of 220,000 active; bead-based flow cytometry RGS16-Galphao binding, fluorescence; actives lie on both sides; AID 1441; O15492+P09471; binding response (% of control), % at 10 µM;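 active = below 25% or above 175%, edge rows of some plates excepted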;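 also: Galphao activated by GDP with aluminum fluoride before binding; 100% = wells without compound and 0% = beads without RGS; some results beyond the cut were filed as inactive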
# Target sequence (O15492 whole entry, looked up): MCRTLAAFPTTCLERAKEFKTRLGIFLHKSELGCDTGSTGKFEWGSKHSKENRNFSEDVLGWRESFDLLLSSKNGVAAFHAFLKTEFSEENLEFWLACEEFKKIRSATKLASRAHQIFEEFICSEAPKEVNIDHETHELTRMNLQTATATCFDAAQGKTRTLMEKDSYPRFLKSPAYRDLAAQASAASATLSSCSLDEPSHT
# Target sequence (P09471 whole entry, looked up): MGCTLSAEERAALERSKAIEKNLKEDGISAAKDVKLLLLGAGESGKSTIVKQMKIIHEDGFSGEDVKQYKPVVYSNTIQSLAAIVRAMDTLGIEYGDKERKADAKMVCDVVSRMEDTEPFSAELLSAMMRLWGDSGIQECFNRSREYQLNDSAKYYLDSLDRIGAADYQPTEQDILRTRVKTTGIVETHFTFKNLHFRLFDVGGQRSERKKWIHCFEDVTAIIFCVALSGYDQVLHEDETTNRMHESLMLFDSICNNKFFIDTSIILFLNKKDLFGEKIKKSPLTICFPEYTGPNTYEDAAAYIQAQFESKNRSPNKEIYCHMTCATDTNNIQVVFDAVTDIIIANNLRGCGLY
# HSV augment = increases HSV replication in cells | HSV replication augmentation in cells, fold increase | maximum fold increase | 0.005% of 220,000 active | AID 1956;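 active = peak rise of 1.5-fold or more in the series; inconclusive = self-fluorescent or not available for retest; tested in PC3 cells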;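 also: first round at 10 µM; read as green reporter fluorescence; hits show the peak of a series up to 25 µM; 1 = signal of infected wells without compound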
# GALR2 ag = agonists of human galanin receptor 2 (GALR2); O43603; 0.48% of 140,000 active; activation, %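 (tested at 5 µM)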; GALR2-expressing cells, agonist activation read-out;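 active = above mean plus 3 SD of all compounds, about 5% in these data, not always enough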;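 also: 0% = vehicle buffer wells and 100% = reference agonist at full effect; tested in CHO reporter cells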
# Target sequence (O43603 whole entry, looked up): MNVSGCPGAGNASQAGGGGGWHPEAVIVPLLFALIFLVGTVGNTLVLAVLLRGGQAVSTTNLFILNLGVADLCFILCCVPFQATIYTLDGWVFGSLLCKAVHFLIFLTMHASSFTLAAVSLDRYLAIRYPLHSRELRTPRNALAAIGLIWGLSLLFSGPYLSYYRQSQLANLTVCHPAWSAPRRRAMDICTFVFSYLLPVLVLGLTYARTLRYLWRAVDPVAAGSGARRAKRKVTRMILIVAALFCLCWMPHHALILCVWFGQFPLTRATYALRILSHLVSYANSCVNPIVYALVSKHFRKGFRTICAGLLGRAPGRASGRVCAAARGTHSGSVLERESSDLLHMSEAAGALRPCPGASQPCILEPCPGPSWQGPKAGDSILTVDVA
# PKD1 kinase inh = PKD1 (human) kinase inhibition | Q15139 | PKD1 kinase fluorescence polarization assay | inhibition, %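 (about 10 µM by stock and volumes)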 | 0.056% of 200,000 active;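 active = inhibition of 50% or more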;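 also: controls were vehicle for no effect and a reference inhibitor for full effect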
# INS promoter inh cell count = second read-out of INS promoter inh, no call of its own (marks repeat the call); normalized cell count, %; measured here: cell count, toxicity; reference of the scale not given here;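 cells exposed to compound for 48 h; stained nuclei by imaging scaled within each plate; lower means fewer cells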
# HSV augment primary fold = also measured in HSV augment; calls as there; fold increase; compound at 10 µM; measured here: primary screen fold increase 10 uM; tested in PC3 cells;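 GFP signal in the first replicate; 1 = infected wells without compound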
# Active calls of the source: *; i = inactive; ? = inconclusive; / = no result given.
SMILES,INS promoter inh,INS promoter inh cell count,RGS16-Gao,HSV augment,HSV augment primary fold,GALR2 ag,PKD1 kinase inh
CCOC(=O)C(Oc1ccc(=O)[nH]n1)C(C)=O (stereo not given),-54.5,87.7,91.8,i,0.96,-0.8,-21.1
C/C=C/Cn1c(SCc2ccccc2)nc2c1c(=O)[nH]c(=O)n2C,-9.1,139.4,87.6,i,0.78,-0.1,6.7
CCNC(=S)Nc1cccc(S(=O)(=O)NC2=NCCC2)c1,/,/,102.0,i,1.08,/,-3.5
CN(C)c1nc(N)c([N+](=O)[O-])c(NCc2ccccc2)n1,/,/,100.6,i,0.97,-0.7,6.8
CC(C)CCn1c(=O)c2ccccc2n2c(CCl)nnc12,60.0,109.0,107.3,i,1.01,/,2.7
N#Cc1c(N2CCN(C(=O)c3ccco3)CC2)nc(-c2ccccc2)c2c1CCCC2,/,/,86.6,i,0.91,-0.5,-9.7
COc1ccc(CCNC(=O)c2ccc(-c3ccc([N+](=O)[O-])cc3Cl)o2)cc1,/,/,97.0,i,1.11,-2.6,6.0
Cc1cc(N2CCN(c3ccccc3)CC2)nc(-n2nc(C)cc2C)n1,-21.4,77.1,101.6,i,1.09,2.1,-12.4
CCN(CC)C(=O)c1ccc(C(=O)c2c(C)cc(C)cc2C)cc1,-60.9,101.1,98.1,i,0.98,-3.1,-3.4
COc1ccc(S(=O)(=O)NC(CC(=O)N2CCc3ccccc32)c2ccco2)cc1 (stereo not given),4.5,148.2,102.7,i,0.92,-1.9,10.5
COc1ccc(OC)c(-n2c(-c3cccc(C)c3)n[nH]c2=S)c1,/,/,97.6,i,1.01,/,-2.0
Cc1cccn2cc(CNC(=O)CC3CCCC3)nc12,-19.5,84.5,96.6,i,1.03,-0.1,2.8
COc1ccc(NC(=O)Nc2cccs2)cc1OC,/,/,92.7,i,1.03,-0.7,-3.5
COCCn1c(SCC#N)nnc1-c1ccccc1O,/,/,101.8,i,1.02,-1.0,7.2
COc1ccc(C)cc1NC(=O)C1CCN(S(=O)(=O)c2cccc3cccnc23)CC1,/,/,116.6,i,0.95,0.2,-4.9
Cn1cc(SCC(=O)N2CCCc3ccccc32)c2ccccc21,/,/,99.9,i,0.89,-1.5,-4.7
COCc1c(C(=O)N/N=C/C2CC=CCC2)nnn1-c1nonc1N (stereo not given),/,/,103.2,i,0.95,-2.2,-2.0
O=C(Nc1ccccc1F)C1CC1c1ccccc1 (stereo not given),-2.8,108.0,103.2,i,1.15,-0.6,-2.5
Cc1ccccc1Nc1n[nH]c(C)c1[N+](=O)[O-],3.5,89.6,103.8,i,0.9,0.0,0.2
CCOC(=O)N1CCN(C(=S)Nc2cccc(C)c2C)CC1,/,/,97.5,i,1.03,-0.8,-8.7
Cn1cc(CN2CCc3c([nH]c4ccccc34)C2C(C)(C)C)cn1 (stereo not given),/,/,100.9,i,1.06,/,-6.3
O=C(Nc1cccc2ncccc12)C(Cl)(Cl)Cl,-166.7,2.3,98.7,i,1.06,-2.5,-0.9
COCCn1c(CN2CCc3ccccc3C2)nc2c1c(=O)n(C)c(=O)n2C,11.6,106.4,101.6,i,1.03,/,-4.4
Cc1nc(NCCc2ccc(F)cc2)c(C#N)c(C)c1[N+](=O)[O-],/,/,105.4,i,0.92,0.5,-4.6
N=c1c2c(ncn1Cc1ccco1)Oc1c(ccc3ccccc13)C2c1ccccc1 (stereo not given),-24.0,91.6,107.6,i,0.82,0.1,5.8
Cc1ccc(F)c(NC(=O)/C(C#N)=C(\O)c2ccc(C(C)(C)C)cc2)c1,/,/,95.2,i,0.93,/,-4.7
C/C(=N\NC(=O)C(N)=O)c1cccc([N+](=O)[O-])c1,/,/,101.5,i,0.86,/,1.6
COc1ccccc1NC(=O)Cn1nc(-c2ccc3c(c2)OCCO3)ccc1=O,/,/,99.8,i,0.87,/,-5.8
O=C(NC1CCCC1)c1cnn2c(C(F)(F)F)cc(-c3ccco3)nc12,-54.5,119.3,99.5,i,0.81,-0.5,2.0
Clc1ccc2c(N/N=C/c3cccc(Br)c3)ccnc2c1,73.0*,203.3*,105.0,i,0.71,3.5,-10.3
O=c1c2ccccc2c(-c2ccc(O)cc2)nn1-c1cccc(C(F)(F)F)c1,/,/,98.5,i,0.89,-0.1,0.6
O=C(CCN1C(=O)/C(=C/c2ccccc2Cl)SC1=S)NC1=NCCS1,-26.7,89.2,306.7,i,0.97,/,-1.4
CCN(CC)C(=O)Oc1nnc(SC(C)C)n1-c1ccc(Cl)c(Cl)c1,/,/,97.1,i,1.02,/,/
Cc1ccc[n+](-c2nc([O-])sc2C=O)c1,/,/,103.0,?,/,/,11.6
CC(C)(C)OC(=O)NCCC(=O)Oc1ccc2ccc(=O)oc2c1,/,/,101.5,/,/,5.2,2.2
Cc1nc(SCC(=O)Nc2cccc(Cl)c2)n[nH]1,33.3,181.4,98.6,i,0.997,-0.7,9.4
Cc1cccn2c(=O)c(/C=C(\C#N)S(=O)(=O)c3ccccc3)c(N3CCC(C(N)=O)CC3)nc12,-12.5,93.3,106.2,i,1.08,-1.5,-7.5
Cc1ccc(C)n1-c1ccc(C(=O)N2CCC(C(N)=O)CC2)cc1,/,/,92.8,i,0.83,/,-6.9
Cc1nc2c(sc3nc4c(cc32)COC(C)(C)C4)c(=O)n1Cc1ccccc1,-48.3,147.7,101.0,i,0.87,-0.7,-2.5
Cc1cc(C)c(C(N)=O)c(Nc2cccc(Cl)c2)n1,29.4,28.5,95.3,i,0.98,-1.3,-4.0
CC1(C)CC(=O)C(C(C2=C(O)CC(C)(C)CC2=O)c2ccc(O)c([N+](=O)[O-])c2)=C(O)C1,-41.7,113.1,99.5,i,0.98,/,-4.9
O=c1[nH]nc(N/N=C/c2ccc(Cl)cc2Cl)c(=O)[nH]1,/,/,104.5,i,0.96,/,/
COC(=O)C(C)Sc1nc2c(c(-c3ccc(OC)cc3)c1C#N)-c1ccccc1C2=O (stereo not given),/,/,/,i,0.64,-1.0,-9.3
COc1ccc(-c2nnc(SCc3cccnc3)o2)cc1,-33.3,73.2,96.8,i,1.06,-1.3,-2.9
CC(C)C(c1nnnn1C1CCCC1)N1CCCCC1 (stereo not given),25.0,87.5,72.7,i,0.86,-1.9,-1.3
CC(=O)c1ccc(N2C(=O)[C@@H]3C(C(=O)CCN4C(=O)c5ccccc5C4=O)=NN[C@@H]3C2=O)cc1,44.8,126.3,99.8,i,1.07,-0.7,-0.3
Cc1ccc2cc3cc(C(=O)NCCCN4CCCCCC4)oc3nc2c1,-100.0,69.4,101.7,/,/,0.7,-1.1
COc1ccc(S(N)(=O)=O)cc1C(=O)NCC1(N2CCCCC2)CCCCC1,/,/,109.6,i,0.99,-1.4,-6.6
O=C(COc1ccc(/C=N/NC(=O)c2cc3ccccc3o2)cc1Cl)Nc1ccccc1,13.6,37.3,i,i,0.77,1.1,8.4
Cn1c(Cl)c(C(=O)Nc2ccc(Cl)cc2)c2ccccc21,32.3,109.4,119.4,i,0.75,-3.2,1.2
Cn1c(Sc2ccc([N+](=O)[O-])cc2C(F)(F)F)nnc1-c1ccccc1,/,/,107.0,i,0.83,-1.8,0.0
O=C(CCCc1cccs1)Nc1nc(-c2ccc(F)cc2)cs1,7.4,89.6,98.4,i,0.96,0.2,-2.3
O=C(NCCN1CCOCC1)c1ccncc1,/,/,106.7,i,0.84,-1.3,-6.3
Cc1nc2ccccc2c2oc(C(=O)Nc3ccc(C(C)C)cc3)cc12,7.1,109.2,104.5,i,0.82,/,2.3
O=C(CSc1nnc(COc2ccccc2)n1Cc1ccco1)c1ccc(F)cc1,-41.7,81.4,98.0,i,0.92,-1.1,-4.8
COCC(=O)NCc1ccc2c(c1)cc(C)n2C,28.6,112.6,103.3,i,1.02,-2.4,-14.7
CCOC(=O)C1=C(C)NC2=C(C1c1ccc([N+](=O)[O-])cc1)S(=O)(=O)c1ccccc12 (stereo not given),49.3,71.4,100.0,i,0.95,-1.7,-7.0
Cc1ccc(OCC(=O)c2c(O)c3ccccc3oc2=O)cc1C,17.1,255.9,98.6,i,0.96,-1.2,-11.3
COC(=O)Cn1c2ccc(OC)cc2c2nc(C)sc21,/,/,103.2,i,0.92,/,/
CCSc1nnc(NS(=O)(=O)c2ccc(C)cc2)s1,0.0,121.6,105.3,i,0.82,-1.1,-7.6
# The results go on:
SMILES,INS promoter inh,INS promoter inh cell count,RGS16-Gao,HSV augment,HSV augment primary fold,GALR2 ag,PKD1 kinase inh
COc1cccc(C(=O)Nc2cc(S(=O)(=O)N3CCCCC3)ccc2OC)c1,35.7,132.7,97.5,i,0.98,/,1.1
Cc1ccc(OC(C)C(=O)O)cc1C (stereo not given),-5.3,100.3,101.4,i,1,-2.7,-10.8
c1ccc(C2=Nn3c(nnc3-c3cc(-c4ccccc4)n[nH]3)SC2)cc1,-16.7,81.6,100.5,i,0.82,3.0,3.8
O=C(c1ccc(Br)o1)N(Cc1ccccc1)Cc1ccccc1,31.8,121.5,111.6,/,/,-0.6,-13.0
CC(C)CNC(=O)COC(=O)c1ccccc1OCC(=O)Nc1ccc(Br)cc1,-10.3,80.2,104.6,i,0.98,-0.3,-0.5
COC(=O)N/N=C/c1cn(Cc2ccc(Cl)cc2Cl)c2ccccc12,1.5,75.0,100.3,i,1.03,-0.5,-3.2
CC(C)(C)[C@]1(O)CCN2C[C@H]3c4ccccc4CCc4cccc(c43)[C@@H]2C1,31.8,117.1,109.6,i,0.95,-1.4,-4.6
O=C(NN1CCOCC1)c1cc(S(=O)(=O)Nc2cccc(C(F)(F)F)c2)ccc1Cl,/,/,102.8,i,0.88,-0.7,-2.7
CCOC(=O)N1CCN(C(=O)CSc2nnc(-c3cc(OC)ccc3OC)o2)CC1,40.7,98.7,103.1,i,0.94,-0.6,-6.2
O=C(N/N=C/c1ccc(OC(F)F)cc1OC(F)F)c1cccc(S(=O)(=O)N2CCOCC2)c1,/,/,101.4,i,0.99,/,8.0
COc1cccc(N2CCN(CC(=O)NC(=O)NCc3ccco3)CC2)c1,8.3,165.6,101.9,i,1.03,/,1.4
Cc1ccc(S(=O)(=O)CCC(=O)O)cc1C,-393.8,54.1,96.4,i,0.94,-4.0,-0.4
S=C(NC1CCCCC1)N1CCOCCOCCN(C(=S)NC2CCCCC2)CCOCCOCC1,/,/,103.3,i,0.83,/,/
Cc1ccccc1OCc1nc2ccccc2c(=O)n1/N=C/c1cn[nH]c1-c1ccc(Br)cc1,29.2,66.5,17.6,i,0.91,-0.8,-0.3
Cc1cc(C(=O)N/N=C/C=C/c2cccc([N+](=O)[O-])c2)n[nH]1,/,/,110.5,i,1.03,/,-4.5
Cc1nn(-c2ccc(C(=O)O)cc2)c(C)c1Oc1ccccc1O,-8.1,92.0,97.9,i,0.98,-2.2,1.9
CC(Oc1ccccc1)C(=O)Nc1ccc(S(=O)(=O)N2CCOCC2)cc1 (stereo not given),20.0,97.2,i,i,0.74,-0.5,-35.0
Cc1ccc2cc(CN(CCN3CCCC3)C(=O)Nc3ccc(F)cc3)c(=O)[nH]c2c1C,-10.7,150.0,103.2,i,1.03,0.7,-6.4
CC1=CN2C(=N)/C(=C/c3ccco3)C(=O)N=C2S1,-3.3,125.1,97.6,i,1.02,0.1,-4.0
Cn1c(N)c(C(=O)COC(=O)CCc2nc3ccccc3s2)c(=O)n(C)c1=O,/,/,100.0,i,0.97,/,5.2
CC1CCN(S(=O)(=O)c2ccc(C(=O)Nc3ccccc3-c3nc4ccccc4[nH]3)cc2)CC1,56.7,98.6,99.6,i,0.76,0.7,-1.0
O=C1N=C(N2CCOCC2)CS1,25.0,137.5,96.9,i,0.87,-2.1,-5.3

# Entries shown so far with a cyano group, in the order listed:
SMILES,INS promoter inh,INS promoter inh cell count,RGS16-Gao,HSV augment,HSV augment primary fold,GALR2 ag,PKD1 kinase inh
N#Cc1c(N2CCN(C(=O)c3ccco3)CC2)nc(-c2ccccc2)c2c1CCCC2,/,/,86.6,i,0.91,-0.5,-9.7
COCCn1c(SCC#N)nnc1-c1ccccc1O,/,/,101.8,i,1.02,-1.0,7.2
Cc1nc(NCCc2ccc(F)cc2)c(C#N)c(C)c1[N+](=O)[O-],/,/,105.4,i,0.92,0.5,-4.6
Cc1ccc(F)c(NC(=O)/C(C#N)=C(\O)c2ccc(C(C)(C)C)cc2)c1,/,/,95.2,i,0.93,/,-4.7
Cc1cccn2c(=O)c(/C=C(\C#N)S(=O)(=O)c3ccccc3)c(N3CCC(C(N)=O)CC3)nc12,-12.5,93.3,106.2,i,1.08,-1.5,-7.5
COC(=O)C(C)Sc1nc2c(c(-c3ccc(OC)cc3)c1C#N)-c1ccccc1C2=O (stereo not given),/,/,/,i,0.64,-1.0,-9.3
